High-throughput results deposited in PubChem BioAssay by Broad Institute.
ID4 binder = binders of human ID4 protein, primary screen, biochemical, small molecule microarray, single point; DNA-binding protein inhibitor ID-4 (Homo sapiens), P47928; Flag-ID4 binding, fluorescence F/B; calls only; actives 1.2% (n = 31,000);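 active = spot signal over background at p below 0.07 in all four prints; compounds were printed on slides so no solution concentration is given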;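 note: a binder raises fluorescence above local background on the spot; about 2 pmol printed per array spot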
Target sequence (P47928 whole entry, looked up): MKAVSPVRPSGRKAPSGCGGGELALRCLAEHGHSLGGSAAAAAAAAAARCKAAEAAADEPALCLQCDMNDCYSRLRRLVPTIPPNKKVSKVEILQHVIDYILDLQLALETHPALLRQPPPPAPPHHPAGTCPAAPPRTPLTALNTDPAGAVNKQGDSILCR
STAT3 SMM = STAT3 binders, primary screen, biochemical, small molecule microarray, single point, set 2; His-STAT3 binding, anti-His fluorescence; calls only; Signal transducer and activator of transcription 3 (Homo sapiens), P40763; AID 624138, 2012; actives 0.2% (n = 17,000);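 active = compounds whose four printed spots each show fluorescence over background unusually high for their array block, chance value under 7%; compounds were printed on slides so no solution concentration is given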;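 note: about 2 pmol printed per array spot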
mut p53 SMM = binders of human mutant p53, primary screen, biochemical, small molecule microarray, anti-GST fluorescence; small molecule microarray binding; AID 624136, 2012; calls only; actives 0.4% (n = 17,000); mutant tumor protein p53 (GST-tagged), Homo sapiens;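 active = compounds whose four printed spots each glow above background more than chance allows, each with a p-value under 7%; compounds were printed on slides so no solution concentration is given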;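 note: about 2 pmol printed per array spot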
Myc binder = binders of human c-Myc, primary screen, biochemical, small molecule microarray, anti-His fluorescence. Myc proto-oncogene protein (Homo sapiens), P01106. His-c-Myc binding. calls only. actives 1.5% (n = 17,000). AID 624141, 2012;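 active = spot fluorescence over background with P-value below 7% in all four replicate spots, showing protein binding; compounds were printed on slides so no solution concentration is given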;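 note: score is binary with 100 for all four spots passing and 0 otherwise; about 2 pmol printed per array spot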
Target sequence (P01106 whole entry, looked up): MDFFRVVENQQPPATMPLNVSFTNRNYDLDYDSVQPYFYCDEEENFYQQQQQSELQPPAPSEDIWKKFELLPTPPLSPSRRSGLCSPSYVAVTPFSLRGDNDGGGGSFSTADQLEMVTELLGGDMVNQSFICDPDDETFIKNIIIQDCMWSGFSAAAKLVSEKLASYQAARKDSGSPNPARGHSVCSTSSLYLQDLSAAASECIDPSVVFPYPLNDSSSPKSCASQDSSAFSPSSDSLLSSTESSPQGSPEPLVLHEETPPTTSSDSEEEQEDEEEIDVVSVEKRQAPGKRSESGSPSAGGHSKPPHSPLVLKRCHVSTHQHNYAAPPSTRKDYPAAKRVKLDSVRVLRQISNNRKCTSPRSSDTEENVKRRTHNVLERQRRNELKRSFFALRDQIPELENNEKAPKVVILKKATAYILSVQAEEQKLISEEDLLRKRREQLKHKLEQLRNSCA
Calls only; i = inactive; nt = not tested or not shown; + = active, no number.

Screens in order: ID4 binder | STAT3 SMM | mut p53 SMM | Myc binder
- C[C@H]1CCCCO[C@@H](CN(C)Cc2ccc(C(=O)O)cc2)[C@@H](C)CN([C@@H](C)CO)C(=O)c2cc(NS(C)(=O)=O)ccc2O1
  i | i | i | i
- O=S(=O)(NCc1cccnc1)c1ccc(Cl)c(Cl)c1Cl
  i | i | i | i
- C[C@H](CO)N1C[C@H](C)[C@H](CN(C)C(=O)Nc2cccc3ccccc23)Oc2c(NC(=O)NC3CCCCC3)cccc2C1=O
  i | i | i | i
- COc1ccc(C(=O)NCCNc2ccc([N+](=O)[O-])cc2C(F)(F)F)cc1
  i | i | i | i
- COc1ccc(NC(=O)C2(c3ccc(NC(=O)c4ccc(OC(C)=O)cc4)cc3)CCCC2)cc1
  i | i | i | i
- COc1cc2c(cc1OC)CN(C(=O)[C@@H]1[C@H]3C(=O)O[C@H](c4ccccc4)[C@H](c4ccccc4)N3[C@H](c3ccccc3OCCO)[C@@]13C(=O)Nc1ccc(C#CC4(O)CCCCCC4)cc13)CC2
  nt | i | i | i
- C[C@H](CO)N1C[C@H](C)[C@H](CN(C)C)OCCCC[C@H](C)Oc2ccc(NS(C)(=O)=O)cc2C1=O
  i | i | i | i
- C[C@@H]1CN([C@@H](C)CO)C(=O)c2cccc(NC(=O)C3CCOCC3)c2O[C@@H]1CN(C)Cc1ccc(Oc2ccccc2)cc1
  i | i | i | i
- CC(C)(C)[C@@H]1C=C(C(=O)N2CCN(Cc3ccccc3)CC2)O[C@H](OCCCCO)C1
  i | i | i | i
- C[C@@H]1CN([C@H](C)CO)C(=O)Cc2cc(NC(=O)Cc3ccccc3)ccc2O[C@@H]1CN(C)Cc1ccc(C(F)(F)F)cc1
  i | i | i | i
- C[C@@H]1CN([C@H](C)CO)C(=O)Cc2cc(NC(=O)NC3CCCCC3)ccc2O[C@@H]1CN(C)S(=O)(=O)c1ccccc1
  i | i | i | i
- C[C@@H]1CN([C@@H](C)CO)C(=O)CCCn2cc(nn2)CO[C@H]1CN(C)S(=O)(=O)c1cccs1
  i | i | i | i
- COc1ccc(CN(C)C[C@H]2Oc3ccc(NC(=O)CCC(F)(F)F)cc3C(=O)N([C@H](C)CO)C[C@H]2C)cc1
  i | i | i | i
- COc1cc2c(c(O)c1OC)C(=O)CC(c1ccc(O)cc1)O2 (stereo unspecified)
  i | i | i | i
- C[C@H](CO)N1C[C@H](C)[C@H](CN(C)Cc2ccncc2)Oc2ccc(NC(=O)Nc3ccc(C(F)(F)F)cc3)cc2CC1=O
  i | i | i | i
- C[C@H](CO)N1C[C@H](C)[C@H](CN(C)S(=O)(=O)c2ccc(C#N)cc2)Oc2ncc(C#CC(C)(C)O)cc2C1=O
  i | i | i | i
- C[C@H]1CN([C@@H](C)CO)C(=O)Cc2cc(NC(=O)C3CC3)ccc2O[C@@H]1CN(C)CC1CC1
  i | i | i | i
- COc1ccc(S(=O)(=O)N(C)C[C@H]2Oc3ccc(NC(=O)Nc4ccc(C(F)(F)F)cc4)cc3C(=O)N([C@H](C)CO)C[C@H]2C)cc1
  i | i | i | i
- C/C=C1/CN[C@H]2Cc3c([nH]c4ccccc34)C(=O)C[C@H]1C2C(=O)OC (stereo partly specified)
  i | i | i | i
- O=C(OC(C(=O)NCc1ccccc1)c1ccco1)c1ccccc1 (stereo unspecified)
  i | i | i | i
- Cc1noc(C)c1S(=O)(=O)Nc1cccc2c1O[C@H](CN(C)S(=O)(=O)c1cn(C)cn1)[C@H](C)CN([C@@H](C)CO)C2=O
  i | i | i | i
- COc1ccc(CN(C)C[C@H]2Oc3ccc(NS(=O)(=O)c4ccc(OC)cc4)cc3CC(=O)N([C@H](C)CO)C[C@H]2C)cc1
  i | i | i | i
- O=C(C1=C[C@@H](c2csc3ccccc23)C[C@@H](OCc2ccc(CO)cc2)O1)N1CCN(Cc2ccc3c(c2)OCO3)CC1
  nt | i | i | i
- COc1ccc(NC(=O)N(C)C[C@@H]2Oc3c(NC(=O)Nc4ccc(C(F)(F)F)cc4)cccc3C(=O)N([C@@H](C)CO)C[C@H]2C)cc1
  nt | i | i | i
- Cc1noc(C)c1NC(=O)N(C)C[C@@H]1OCc2cn(nn2)CCCC(=O)N([C@@H](C)CO)C[C@@H]1C
  i | i | i | i
- C[C@H](CO)N1C[C@H](C)[C@H](CN(C)C(=O)c2ccccc2)OCCCC[C@H](C)Oc2ccc(NC(=O)Nc3ccc(F)cc3)cc2C1=O
  i | i | i | i
- NC(=O)CSc1nc2ccccc2n1Cc1ccccc1F
  i | i | i | i
- CCc1c(C)sc(NC(=O)c2cc(-c3cccnc3)nc3ccc(Cl)cc23)c1C(=O)N1CCOCC1
  i | i | i | i
- Cc1noc(C)c1NC(=O)Nc1ccc2c(c1)C(=O)N([C@H](C)CO)C[C@H](C)[C@@H](CN(C)C)OCCCC[C@H](C)O2
  i | i | i | i
- C[C@@H]1CN([C@@H](C)CO)C(=O)c2cc(NC(=O)Nc3ccc(C(F)(F)F)cc3)ccc2O[C@@H]1CN(C)C(=O)NC1CCCCC1
  i | i | i | i

A second format for part of the listing above.
> Cc1noc(C)c1NC(=O)N(C)C[C@@H]1OCc2cn(nn2)CCCC(=O)N([C@@H](C)CO)C[C@@H]1C
  ID4 binder = i | STAT3 SMM = i | mut p53 SMM = i | Myc binder = i
> C[C@H](CO)N1C[C@H](C)[C@H](CN(C)C(=O)c2ccccc2)OCCCC[C@H](C)Oc2ccc(NC(=O)Nc3ccc(F)cc3)cc2C1=O
  ID4 binder = i | STAT3 SMM = i | mut p53 SMM = i | Myc binder = i

Other compounds follow.
Screens in order: ID4 binder | STAT3 SMM | mut p53 SMM | Myc binder
- C[C@@H]1CN([C@@H](C)CO)C(=O)c2cc(NC(=O)NC3CCCCC3)ccc2O[C@@H]1CN(C)S(=O)(=O)c1ccccc1
  i | i | i | i
- CCOC(=O)CSc1nc(-c2ccccc2)nc2sc3c(c12)CCCC3
  i | i | i | i
- Cc1ccc(C)c(NC(=O)CCCN2C(=O)c3ccccc3C2=O)c1
  i | i | i | i
- Cc1cccc(N(C)C(=S)Oc2ccc3ccccc3c2)c1
  i | i | i | i
- CN1C(=O)C(O)(CC(=O)c2ccccn2)c2cc(Br)ccc21 (stereo unspecified)
  i | i | i | i
- COc1ccc(S(=O)(=O)N(C)C[C@H]2Oc3ccc(NC(=O)Nc4c(C)noc4C)cc3C(=O)N([C@H](C)CO)C[C@@H]2C)cc1
  i | i | i | i
- C[C@H](CO)N1C[C@H](C)[C@H](CN(C)C(=O)Nc2ccc(C(F)(F)F)cc2)Oc2ccc(NC(=O)C3CC3)cc2CC1=O
  i | i | i | i
- O=C(Cn1cnc2sc(-c3ccccc3)cc2c1=O)Nc1ccccc1
  i | i | i | i
- Cc1noc(C)c1NC(=O)N(C)C[C@H]1Oc2c(NC(=O)Nc3ccc(C(F)(F)F)cc3)cccc2C(=O)N([C@H](C)CO)C[C@@H]1C
  i | i | i | i
- C[C@@H]1CN([C@@H](C)CO)C(=O)Cc2cc(N(C)C)ccc2O[C@@H]1CN(C)S(=O)(=O)c1cn(C)cn1
  i | i | i | i
- C[C@H](CO)N1C[C@H](C)[C@@H](CN(C)C(=O)Nc2ccccc2)Oc2c(NS(C)(=O)=O)cccc2C1=O
  i | i | i | i
- O=C1O[C@@H](c2ccccc2)[C@@H](c2ccccc2)N2[C@@H](c3ccccc3OCCO)[C@]3(C(=O)Nc4ccc(C#CC5=CCCCC5)cc43)[C@@H](C(=O)N3CCCCCCC3)[C@H]12
  i | i | i | i
- Cc1ccc(S(=O)(=O)N(C)C[C@@H]2OCCCC[C@H](C)Oc3ccc(NC(=O)CCC(F)(F)F)cc3C(=O)N([C@H](C)CO)C[C@H]2C)cc1
  nt | i | i | i
- C[C@@H]1CN([C@H](C)CO)C(=O)c2cccc(N(C)C)c2O[C@@H]1CN(C)Cc1ccc(C(=O)O)cc1
  i | i | i | i
- C[C@@H]1CCCCO[C@@H](CN(C)C(=O)Cc2ccccc2)[C@H](C)CN([C@H](C)CO)C(=O)c2cc(NS(C)(=O)=O)ccc2O1
  i | i | i | i
- CS(=O)(=O)N(CC(=O)Nc1cc(Cl)ccc1Cl)c1ccc(I)cc1
  i | i | i | i
- NS(=O)(=O)c1ccc(NC(=O)CN2CCN(Cc3ccccc3)CC2)cc1
  + | i | i | i
- C[C@@H]1CN([C@@H](C)CO)C(=O)Cc2cc(NC(=O)Cn3cnnn3)ccc2O[C@@H]1CN(C)C
  i | i | i | i
- O=C(NCc1cccnc1)C(=O)Nc1ccccc1F
  i | i | i | i
- C[C@@H]1CN([C@@H](C)CO)C(=O)Cc2cc(NS(=O)(=O)c3cccs3)ccc2O[C@@H]1CN(C)C(=O)Nc1ccc(F)cc1
  i | i | i | i

In a second layout: entries from further up.
| molecule | ID4 binder | STAT3 SMM | mut p53 SMM | Myc binder |
| --- | --- | --- | --- | --- |
| CS(=O)(=O)N(CC(=O)Nc1cc(Cl)ccc1Cl)c1ccc(I)cc1 | i | i | i | i |
| NS(=O)(=O)c1ccc(NC(=O)CN2CCN(Cc3ccccc3)CC2)cc1 | + | i | i | i |

Later entries.
Screens in order: ID4 binder | STAT3 SMM | mut p53 SMM | Myc binder
- O=C(NCc1nc2ccccc2[nH]1)C1=C[C@@H](c2coc3ccccc3c2=O)C[C@@H](OCc2ccc(CO)cc2)O1
  i | i | i | i
- Cc1ccc(S(=O)(=O)NCCSc2nncn2C)cc1
  i | i | i | i
- CC(C)NC(=O)N(C)C[C@@H]1Oc2c(NC(=O)C3CCOCC3)cccc2C(=O)N([C@@H](C)CO)C[C@H]1C
  i | i | i | i
- COc1c2c(cc3occ(-c4ccc5c(c4)OCO5)c(=O)c13)OC(C)(C)C=C2
  i | i | i | i
- CSc1ccccc1NC(=O)CN(Cc1ccccc1)S(C)(=O)=O
  i | i | i | i
- C[C@H]1CN([C@@H](C)CO)C(=O)Cc2cc(NC(=O)NC3CCCCC3)ccc2O[C@H]1CN(C)S(=O)(=O)c1ccc(Cl)cc1
  i | i | i | i
- COc1ccc([N+](=O)[O-])cc1NC(=O)c1cc(-c2ccccn2)nc2ccc(C)cc12
  i | i | i | i
- C[C@H](CO)N1C[C@H](C)[C@H](CN(C)Cc2ccc(C(F)(F)F)cc2)Oc2ccc(N(C)C)cc2CC1=O
  i | i | i | i
- CCCCCCCCNC(=O)C(Cc1ccc(OCc2ccncc2)cc1)NC(=O)C1CCC(CN)CC1 (stereo unspecified)
  i | i | i | i
- O=c1[nH]c2cc([N+](=O)[O-])c([N+](=O)[O-])cc2[nH]c1=O
  i | i | i | i
- C[C@H]1CN([C@@H](C)CO)C(=O)c2cc(N(C)C)ccc2O[C@H]1CN(C)Cc1ccncc1
  i | i | i | i
- CC(=O)COc1cc(OCC(C)=O)c2c(C)cc(=O)oc2c1
  i | i | i | i
- C[C@@H]1CN([C@H](C)CO)C(=O)Cc2cc(NC(=O)Cc3ccccc3)ccc2O[C@H]1CN(C)C(=O)NC1CCCCC1
  i | i | i | i
- C[C@H](CO)N1C[C@H](C)[C@@H](CN(C)C(=O)CCCN(C)C)OCCCC[C@H](C)Oc2ccc(NC(=O)Nc3ccc(C(F)(F)F)cc3)cc2C1=O
  nt | i | i | i
- C[C@@H]1CN([C@H](C)CO)C(=O)c2cc(NS(=O)(=O)c3cccs3)ccc2O[C@@H]1CN(C)C(=O)Nc1ccc(F)cc1
  i | i | i | i
- COCCOC(=O)N1C(=O)[C@@]2(c3ccccc31)[C@H](C(N)=O)[C@H]1C(=O)O[C@H](c3ccccc3)[C@H](c3ccccc3)N1[C@@H]2c1ccccc1OCCO
  i | i | i | i
- Cc1ccc(Cl)cc1NC(=O)CC(C(=O)O)N(C)C (stereo unspecified)
  i | i | i | i
- C[C@H](CO)N1C[C@H](C)[C@@H](CN(C)S(=O)(=O)c2cn(C)cn2)Oc2c(NC(=O)C3CCOCC3)cccc2C1=O
  i | i | i | i
- C[C@H]1CCCCO[C@H](CN(C)C(=O)CCC(F)(F)F)[C@@H](C)CN([C@@H](C)CO)C(=O)c2cc(NC(=O)c3ccncc3)ccc2O1
  i | i | i | i
- C[C@@H]1CCCCO[C@H](CN(C)S(=O)(=O)c2ccc(Cl)cc2)[C@H](C)CN([C@H](C)CO)C(=O)c2cc(NS(=O)(=O)c3ccc(F)cc3)ccc2O1
  nt | i | i | i
- C[C@@H]1CCCCO[C@@H](CN(C)S(=O)(=O)c2cn(C)cn2)[C@H](C)CN([C@H](C)CO)C(=O)c2cc(NS(=O)(=O)c3cn(C)cn3)ccc2O1
  i | i | i | i
- C[C@H](CO)N1C[C@H](C)[C@H](CN(C)Cc2ccc3c(c2)OCO3)Oc2c(NS(=O)(=O)c3ccc(Cl)cc3)cccc2C1=O
  i | i | i | i
- S=C(NCc1ccco1)Nc1cccnc1
  i | i | i | i
- O=C(NCc1ccccn1)c1ccc(Cl)c(S(=O)(=O)N2CCOCC2)c1
  i | i | i | i
- Cc1ccc(/C=C2/CNC/C(=C\c3ccc(C)cc3)C2=O)cc1
  i | i | i | i
- CCCn1c(=O)c2[nH]c(-c3ccc(OCC(=O)Nc4ccc(C#N)cc4)cc3)nc2n(CCC)c1=O
  i | i | i | i
- O=C(NCc1ccccc1)C1=C[C@H](C2CC2)C[C@H](OCCCCO)O1
  nt | i | i | i

Some of the compounds tested (hit frequency here may not be typical).
